D2 agonist – Beta-Arrestin HTS for Positive Allosteric Modulators of the Human D2 Dopamine Receptor: Agonists; DiscoveRx PathHunter D2 beta-arrestin, luminescence, 90 min; 100% = 57 uM dopamine signal; hit rate 0.084% among 360,000; D(2) dopamine receptor (Homo sapiens), P14416; AID 624465, 2012; activation, % (test concentration not listed); in the data active = activation above about 40%; inconclusive = about 15% to 40%; inactive = below about 15%; also: compound concentration not given in the record; the text of the record calls up to 30% inactive
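Agonist mode: compounds alone added to overnight-plated D2 PathHunter cells for 90 min at 37 C, with 57 uM final dopamine (EC100) defining full response. Beta-arrestin recruitment detected by chemiluminescent reagent, read after 1 h at ambient temperature.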
PINK1 expr mod – A Quantitative High throughput Screen to Identify Chemical Modulators of PINK1 Expression; PINK1 immunofluorescence, high-content cytometry, 24 h; Potency, µM (doses to about 76.6 µM), inactives show at the highest dose activation (PINK1 increase), usual class: activators; hit rate 0.2% among 410,000; active = well fitted activation curve with a large enough effect; inconclusive = small, poorly fitted or top-dose-only effect; inactive = flat fitted curve, though single readings scatter; cell line not stated here;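 also: potency is read from the fitted curve at half-maximal effect; % of control where 0% means no effect; nearly all actives have a fitted effect of over 65% in size; a mitochondrial uncoupler was the plate control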
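Decision-based qHTS: stable cells, 24 h exposure to five compound concentrations, CCCP as control. Fixed cells stained for PINK1 plus nuclear, mitochondrial and cell markers, cytometer read.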
D2 potentiator – Beta-Arrestin HTS for Positive Allosteric Modulators of the Human D2 Dopamine Receptor: Potentiators | D(2) dopamine receptor (Homo sapiens), P14416 | DiscoveRx D2 beta-arrestin cells, luminescence, 90 min; 100% = 57 uM dopamine signal | potentiation, % (concentration not given with the values) | hit rate 0.23% among 360,000 | AID 624464, 2012; active = potentiation of 50% or more; inconclusive = 30% to 50%; inactive = 30% or less;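 also: compound concentration not given in the record; tested on top of an EC20 dose of dopamine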
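D2 cells co-treated with compound plus 50 nM dopamine (EC20) for 90 min at 37 deg C to detect potentiation. Beta-arrestin recruitment was read as enzyme-fragment luminescence after 1 h at ambient temperature. Full response was set by 57 uM dopamine.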
Six1-Eya2 inh – qHTS Assay for Inhibitors of the Six1/Eya2 Interaction; Homeobox protein SIX1 (Homo sapiens) + Protein phosphatase EYA2 (Homo sapiens), …; AlphaScreen GST-Six1/His-Eya2 binding, biochemical; stronger effect = lower value; control for the full effect not named in the record; activity change, % (concentration not given with the values); hit rate 0.56% among 360,000; in the data active = activity change below about -65%; inconclusive = about -30% to -65%; inactive = above about -30%; also: % is scaled to controls: 0 for no effect and ±100 for the full control effect
Target sequence (O00167 whole entry, looked up): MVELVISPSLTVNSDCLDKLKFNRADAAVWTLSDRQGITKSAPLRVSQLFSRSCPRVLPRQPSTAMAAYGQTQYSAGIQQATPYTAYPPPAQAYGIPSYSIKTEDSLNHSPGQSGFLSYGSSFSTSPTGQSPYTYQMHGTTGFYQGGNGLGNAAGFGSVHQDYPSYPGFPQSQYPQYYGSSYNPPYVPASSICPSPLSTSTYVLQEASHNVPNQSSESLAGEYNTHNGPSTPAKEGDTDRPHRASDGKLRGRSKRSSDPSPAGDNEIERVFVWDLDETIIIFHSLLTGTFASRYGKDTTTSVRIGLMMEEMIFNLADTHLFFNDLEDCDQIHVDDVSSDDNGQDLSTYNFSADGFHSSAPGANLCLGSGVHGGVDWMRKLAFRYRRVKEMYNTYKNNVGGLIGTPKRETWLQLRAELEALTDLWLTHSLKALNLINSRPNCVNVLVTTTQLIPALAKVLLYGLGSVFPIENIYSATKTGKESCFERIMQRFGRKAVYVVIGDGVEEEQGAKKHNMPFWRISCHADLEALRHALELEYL
Target sequence (Q15475 whole entry, looked up): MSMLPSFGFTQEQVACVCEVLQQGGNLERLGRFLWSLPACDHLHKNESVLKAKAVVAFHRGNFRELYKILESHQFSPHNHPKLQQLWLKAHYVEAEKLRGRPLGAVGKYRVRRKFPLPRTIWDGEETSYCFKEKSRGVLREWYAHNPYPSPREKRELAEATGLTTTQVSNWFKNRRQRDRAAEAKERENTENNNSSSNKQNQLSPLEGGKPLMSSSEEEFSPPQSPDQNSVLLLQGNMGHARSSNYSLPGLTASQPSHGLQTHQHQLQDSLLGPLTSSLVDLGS
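Six1/Eya2 binding was read as AlphaScreen signal after compounds were pinned into GST-Six1 plus His-tagged Eya2 (5X stock 250/500 nM) in pH 8.0 Tris/NaCl/TCEP buffer, beads added, then incubated 1 h, 37 C, dark.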
TRPML1 ag – qHTS for Agonists of the Human Mucolipin Transient Receptor Potential 1 (TRPML1); hit rate 0.12% among 410,000; TRPML1-expressing cells, Ca2+ dye fluorescence, FDSS; host cell line not named in the record; reference of the full effect not given here; activation, % (concentration not given with the values); in the data active = activation above about 50%; inconclusive = about 30% to 50%; inactive = below about 30%; also: 0% is about no effect; the text of the record puts the active cut at 80%
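In this qHTS format, compounds were pin-transferred onto Ca8-dye-loaded TRPML1-DL cells induced with Tet overnight, and intracellular Ca2+ fluorescence was recorded kinetically for 110 s after a 10 s baseline. A subsequent 4uM final 54-4 (EC80) addition followed by a second 110 s read served as the antagonist phase.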
CtBP-E1A inh – qHTS Assay for Inhibitors of the CtBP/E1A Interaction; AlphaScreen GST-E1A/His-CtBP binding, 1536-well; stronger effect = lower value; control for the full effect not named in the record; activity change, % (no concentration beside the values); hit rate 0.49% among 340,000; in the data active means activity change below about -65%; inconclusive means about -30% to -65%; inactive means above about -30%; also: % is scaled to controls: 0 for no effect and ±100 for the full control effect; compound concentration not given in the record
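Steps: dispense buffer (Tris pH 8.0, NaCl 300 mM, TCEP 1 mM, BSA, Tween 20); add 5X protein mix (GST-E1A, His-CtBP, 125 nM each); pin 23 nL compound; 2 h at 37 °C, dark; add 5X beads (50 ug/mL); 1 h; read.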
The depositor's hits bear a star; u = inconclusive; x = not tested or not shown; & = joins results of further samples; [ ] = another dose, or the depositor's remark.

Sample of the layout (five entries):
Each structure is followed by: Six1-Eya2 inh	D2 agonist	PINK1 expr mod	D2 potentiator	TRPML1 ag	CtBP-E1A inh
#1 CCOc1ccc(CCNC(=O)c2c(C)nn(-c3ccccc3)c2Cl)cc1OCC
    -5	-6.9	0.3%	5	2.3	7
#2 CC(=O)c1ccc(OCC(O)CN2CCCC(C)C2)cc1 (configuration not stated)
    0	-0.9	1.0%	-12	-0.1	-6
#3 Cc1noc(NS(=O)(=O)c2ccc(NC(=O)COc3ccccc3)cc2)c1C
    -3	-0.9	2.1%[38.3 µM]	-3	-0.6	14
#4 COc1ccc2[nH]c(=O)c(-c3noc(-c4ccc(F)cc4)n3)cc2c1
    4	1.0	x	-5	-0.4	-4
#5 CCOC(=O)C(NC(C)=O)C(=O)Nc1c(C)cccc1C (configuration not stated)
    0	-0.4	0.5%	-5	2.1	14

The listing, from the start:
Each structure is followed by: Six1-Eya2 inh	D2 agonist	PINK1 expr mod	D2 potentiator	TRPML1 ag	CtBP-E1A inh
#1 CCOc1ccc(CCNC(=O)c2c(C)nn(-c3ccccc3)c2Cl)cc1OCC
    -5	-6.9	0.3%	5	2.3	7
#2 CC(=O)c1ccc(OCC(O)CN2CCCC(C)C2)cc1 (configuration not stated)
    0	-0.9	1.0%	-12	-0.1	-6
#3 Cc1noc(NS(=O)(=O)c2ccc(NC(=O)COc3ccccc3)cc2)c1C
    -3	-0.9	2.1%[38.3 µM]	-3	-0.6	14
#4 COc1ccc2[nH]c(=O)c(-c3noc(-c4ccc(F)cc4)n3)cc2c1
    4	1.0	x	-5	-0.4	-4
#5 CCOC(=O)C(NC(C)=O)C(=O)Nc1c(C)cccc1C (configuration not stated)
    0	-0.4	0.5%	-5	2.1	14
#6 CCOC(=O)c1c(NC(=O)CSc2nc3ccc(C)cc3[nH]2)sc2c1CC(C)(C)NC2(C)C
    -4	-8.0	-1.7%	-25	0.0	-7
#7 CCOC(=O)C1=C(O)c2ccccc2C(=O)/C1=C\c1ccc(CC)cc1
    -13	3.8	16%[38.3 µM]	28	-0.2	-9
#8 O=C(NNC(=S)NC1CCCCC1)c1ccccc1O
    -13	0.4	5.2%	-1	-0.3	u
#9 CCCc1c(-c2cccc(F)c2)ncn1CCc1ccccc1OC
    -18	x	27%	x	-0.9	0
#10 O=C(c1c(F)cccc1F)N1CCN(c2cccc(C(F)(F)F)c2)CC1
    2	-0.5	2.7%	-9	0.5	3
#11 O=C(Oc1ccccc1)c1cccnc1Oc1ccccc1
    8	-1.6	0.5%	0	1.9	x
#12 C/C(=N/NC(=O)CC1N=C(Cc2ccccc2)NNC1=O)c1cccnc1 (configuration not stated)
    6	1.1	1.7%	-6	1.1	6
#13 Cc1nn(-c2ccccc2)c(-c2ccccc2)c1C(=O)O
    2	-0.4	-1.8%	-5	-0.6	6
#14 CC1CCCC(NC(=O)CN(C)CC(=O)Nc2cccc(F)c2)C1C (configuration not stated)
    -5	-3.5	1.0%	-15	-0.6	6
#15 CC(C)OCCCNC(=O)Cn1ccc2cc(S(=O)(=O)N3CCCCC3)ccc21
    -3	-1.4	0.3%	-6	-0.5	-1
#16 O=C(C1CCN(S(=O)(=O)c2cccc3nsnc23)CC1)N1CCCCC1
    -1	2.2	0.3%	-2	-0.8	8
#17 O=C(Nc1cccc(Cl)c1)N(CCN1CCOCC1)Cc1cccc(Cl)c1
    4	-6.3	-5.6%[38.3 µM]	-20	1.8	4
#18 COC(=O)c1ccc(S(=O)(=O)N2CCCN(Cc3ccccc3)CC2)n1C
    -4	3.1	-1.6%	-7	-0.8	-6
#19 Nc1nc(-c2ccc(Cl)cc2Cl)cn1N
    -7	-2.9	-1.3%	-10	1.0	-3
#20 O=C(c1ccccc1)N1CCN(C(=O)c2nn3c(C(F)(F)F)cc(-c4ccco4)nc3c2Cl)CC1
    -5	0.4	3.8%	-3	0.9	2
#21 CCCc1c(C)nc(N2CCN(c3ccccc3F)CC2)[nH]c1=O
    8	-1.6	4.2%	-4	-0.1	-3
#22 NS(=O)(=O)c1ccc(CCNC(=O)C2CCCN2C(=O)OCc2ccccc2)cc1 (configuration not stated)
    0	-1.4	0.1%	-2	0.2	2
#23 O=C(CN1CCN(Cc2ccccc2F)CC1)Nc1ccccc1Cl
    -1	-4.4	4.0%	-5	x	1
#24 CCO[C@@H]1OC(C(=O)N2CCN(Cc3ccccc3)CC2)=C[C@H](c2ccc(Br)cc2)[C@H]1CCCO
    -12	-7.2	3.3%	-26	-0.8	-7
#25 CN(C)Cc1c(C(=O)N/N=C/C=C/c2ccccc2)nnn1-c1nonc1N
    -7	1.9	0.7%	-6	-0.7	1
#26 C=Cn1c(C(=O)O)ccc1-c1ccc(OC)cc1
    0	-5.9	-1.4%	-1	0.3	-22
#27 CC(C)c1c(C(=O)N/N=C/c2ccc(OCc3ccccc3)cc2)nnn1-c1nonc1N
    2	9.5	1.8%	3	-0.4	2
#28 CCOC(=O)NNC(=O)C1CCC(C)CC1 (configuration not stated)
    8	-0.1	-0.7%&0.6%	2	0.3&1.6	-3
#29 NC(Cc1ccc(F)cc1)c1csc(Nc2ccc(C(F)(F)F)cn2)n1 (configuration not stated)
    -5	8.3	-1.2%	6	-0.3	-6
#30 Cc1ccc(NS(=O)(=O)c2ccccc2Cl)c2c1CC(C)(C)O2
    4	-4.2	-1.4%	-13	-0.8	5
#31 CC1(c2nnnn2-c2ccc3c(c2)OCCO3)CCC(=O)N1Cc1ccc(F)cc1 (configuration not stated)
    -1	x	1.1%	x	-0.9	2
#32 CCN(CC)S(=O)(=O)c1ccc(OCC(=O)NC(=O)c2ccccc2OC)c([N+](=O)[O-])c1
    -9	6.2	6.1%	55*	0.1	0
#33 CC(C)Cn1c(-c2ccc(Br)o2)n[nH]c1=S
    1	2.7	1.3%	-3	4.2	7
#34 CCN(CC)CCNc1ncnc2c1sc1nc(N3CCOCC3)c3c(c12)CC(C)(C)SC3
    -1	-2.0	x	-33	0.1	3
#35 CCCN(CCC)C(=S)NC1CC2C=CC1C2 (configuration not stated)
    6	0.0	-0.6%	0	2.6	9
#36 C/C(=N/NC(=O)c1ccc(Br)s1)c1ccncc1
    -7	-5.3	-1.3%	-32	0.8	-10
#37 Cn1cc(C(=O)c2ccc(Cl)cc2Cl)cc1C(=O)N/N=C(\N)COc1ccccc1
    4	1.5	-1.6%	-14	0.5	-13
#38 CC(O)(c1cccc(F)c1)c1nc(-c2ccc3ccccc3c2)cs1 (configuration not stated)
    4	-2.7	u	-12	0.4	-1
#39 COc1cc(CN2CCNC(=O)C2CC(=O)NCCCC2CCCC2)cc(OC)c1 (configuration not stated)
    8	1.1	-0.8%	-31	-0.1	-9
#40 CCN(CC)S(=O)(=O)N1CCC(C(=O)NC2CCCC2)CC1
    4	0.3	-0.2%[38.3 µM]	-5	0.1	1
#41 O=[N+]([O-])c1ccc(CSc2ccc(S(=O)(=O)N3CCCCC3)cn2)cc1
    -18	9.3	-1.0%	-2	-0.4	-17
#42 Cc1c(NC(=O)CCCOc2ccccc2)cccc1[N+](=O)[O-]
    9	-2.0	3.2%	-25	-0.4	9
#43 O=C(Nc1ccc(-c2nc3cccnc3s2)cc1)c1ccco1
    -1	0.0	0.3%	1	0.4	-23
#44 COc1cccc(NC(=O)CCc2c(C)nn(-c3ccc(N4CCOCC4)nn3)c2C)c1
    0	-3.6	0.2%	-1	-0.6	0
#45 CCn1cc(S(=O)(=O)CC(=O)Nc2cccc(C)c2)c2ccccc21
    -3	-0.9	0.4%	-6	0.3	1
#46 COc1ccc(CNC(=O)CCC(=O)Nc2ccc(Cl)cc2)cc1
    -4	-2.4	2.3%	-1	0.6	8
#47 N#Cc1ccsc1NC(=O)CCN1C(=O)C2CCCCC2C1=O (configuration not stated)
    7	-3.4	-3.1%	-1	0.3	-3
#48 Cc1nc(CNS(=O)(=O)c2ccccc2F)cs1
    -1	-1.6	0.6%	-4	-0.6	11
#49 CCN(CC)S(=O)(=O)c1cccc(NC(=O)COC(=O)CNC(=O)c2cccc(F)c2)c1
    1	-3.0	-1.1%	-11	-0.9	x
#50 Cc1c(N2C(=O)CS/C2=N\N=C\c2ccc(Cl)cc2)c(=O)n(-c2ccccc2)n1C
    0	-0.8	-3.0%[38.3 µM]	-7	-0.5	3
#51 Cc1ccc(C(=O)NC2=NCCS2)cc1Cl
    1	0.2	1.1%	-9	0.0	0
#52 CCCN1C2CCCC1CC(NC(=O)c1cc(OC)c(OC)c(OC)c1)C2 (configuration not stated)
    -1	-2.7	2.0%	-31	0.7	4
#53 CCN1CCN(c2c(S(=O)(=O)c3ccc(C)c(C)c3)cnc3ccc(F)cc23)CC1
    -12	-4.6	1.2%&0.1%	-12	0.1&0.6	-2
#54 CC(=O)Nc1cc(NC(C)=O)c2nc(N)sc2c1
    -20	1.5	4.6%	-15	0.6	-10
#55 COc1ccc(Cl)cc1NC(=O)CC(=O)Nc1cc(Cl)ccc1OC
    -7	-2.3	u	-11	0.4	0
#56 Cc1cc(C)nc(NC(N)=S)n1
    3	-1.6	0.1%	-1	x	3
#57 S=c1[nH]nc(-c2cccnc2)n1C1CCCCC1
    12	-2.7	0.5%	-16	0.0	-2
#58 Cc1cccc(C)c1Oc1nc(-c2ccccc2)ncc1S(=O)(=O)c1ccccc1
    20	0.9	-1.1%	-5	-0.1	1
#59 Cc1ccc2cc(CN(CC3CCCO3)C(=S)Nc3ccccc3)c(=O)[nH]c2c1C (configuration not stated)
    -18	-2.1	6.4%	-11	0.3	-16
#60 CC[C@@H]1CC2=C(C(=O)OC(C)(C)O2)[C@H](c2ccc(Cl)cc2)O1
    -2	5.1	5.3%	0	-0.5	9
#61 CCOc1cc(S(=O)(=O)n2ccnc2)ccc1Cl
    5	1.6	-2.0%	-2	1.1	0
#62 Fc1ccc(NC(=S)Nc2cccnc2)cc1Cl
    0	-0.9	0.4%	-11	1.5	x
